Vaccinia stage: blocks a specific stage of Vaccinia orthopoxvirus infection, primary screen, cell-based, single point; activity change (mCherry), % (no concentration beside the values); actives 0.01% (n = 89,000); Vaccinia-infected cells, mCherry/Venus stage reporter fluorescence; stronger effect = lower value; some inactives read as strong as hits;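 active = mCherry past -33% and 40 or more points under the early reporter, replicates agreeing; inconclusive = past -33% without that gap or agreement; tested in A549 cells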;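 note: scaled between vehicle wells and reference inhibitor wells; 23 nL library stock went into each well; one replicate is shown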
Vaccinia stage Venus: also measured in Vaccinia stage; calls as there; activity change (Venus), %; measured here: Venus reporter, other viral stage;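 negative = less Venus signal; first of two replicates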
An asterisk follows results filed as active; ? = inconclusive; / = not tested or not shown; & = joins results of further samples. A portion of the library. The share of hits here may be higher or lower than overall.

SMILES | Vaccinia stage | Vaccinia stage Venus
CCN1[C@H](C(=O)NCc2ccccn2)[C@@H](CO)[C@@H]2Cn3c(ccc(C4=CCCC4)c3=O)[C@@H]21 | 2.8 | 7.8
Cn1cnc(S(=O)(=O)N2C[C@H](O)COC[C@@H]3O[C@@H](CC(=O)NCc4cc(F)cc(F)c4)CC[C@H]32)c1 | 7.4 | 6.6
COc1ccc(C#Cc2ccc([C@H]3[C@H]4CN(S(=O)(=O)c5ccccc5)CCCCN4[C@H]3CO)cc2)cc1 | 18.2 | 14.0
C/C=C/c1ccc(C2[C@H]3CNC[C@@H]2N3S(=O)(=O)c2ccccc2OC)cc1 (stereo partly specified) | 0.2&12.3 | -4.9&2.9
C[C@@H]1CN([C@@H](C)CO)C(=O)Cc2cc(NS(=O)(=O)c3ccc(Cl)cc3)ccc2O[C@H]1CN(C)S(=O)(=O)c1ccccc1 | -4.4 | -7.6
C[C@@H]1CN([C@@H](C)CO)C(=O)Cc2cc(NS(=O)(=O)c3ccccc3)ccc2O[C@@H]1CN(C)S(C)(=O)=O | 17.6 | 19.9
C[C@H](CO)N1C[C@H](C)[C@@H](CN(C)C(=O)Cc2cccnc2)Oc2ncc(C3=CCCCC3)cc2C1=O | 14.8 | 11.3
O=C(Nc1ccc(F)cc1)Nc1ccc2c(c1)[C@H]1C[C@H](CC(=O)N3CCOCC3)O[C@H](CO)[C@H]1O2 | 2.0 | 2.7
C[C@H]1CN([C@@H](C)CO)C(=O)c2cccc(NC(=O)c3cnccn3)c2O[C@@H]1CN(C)Cc1ccc(-c2ccccc2)cc1 | -28.3 | -15.7
COc1cccc(S(=O)(=O)N[C@@H]2CC[C@H](CC(=O)NCc3ccncc3)O[C@@H]2CO)c1 | 0.5 | 7.0
C[C@H]1CN([C@@H](C)CO)C(=O)c2cc(NC(=O)Nc3ccccc3)ccc2O[C@@H]1CN(C)S(=O)(=O)c1cccs1 | 3.9 | 20.2
C[C@@H]1CN([C@H](C)CO)C(=O)Cc2cc(NS(C)(=O)=O)ccc2O[C@@H]1CN(C)S(=O)(=O)c1ccc(F)cc1 | 6.4 | -2.4
C[C@H](NC(=O)C[C@@H]1C[C@H]2c3cc(NC(=O)NC4CCCC4)ccc3O[C@H]2[C@H](CO)O1)c1ccccc1 | -1.3 | 2.9
C[C@H](CO)N1C[C@H](C)[C@H](CN(C)Cc2ccc(C(=O)Nc3ccccc3N)cc2)Oc2ccc(NS(=O)(=O)c3ccc(Cl)cc3)cc2C1=O | 2.9 | 3.3
O=C(NCC[C@H]1CC[C@H](NC(=O)C2CCCCC2)[C@H](CO)O1)c1cnccn1 | -1.1 | -0.7
C[C@H]1CN([C@@H](C)CO)C(=O)c2cc(NC(=O)Cn3cnnn3)ccc2O[C@H]1CN(C)CC1CCCCC1 | -3.8 | 10.2
COc1ccccc1-c1ccc(C2[C@@H]3CN(S(=O)(=O)c4ccccc4C)C[C@H]2N3)cc1 (stereo partly specified) | ? | -2.0
O=C(C[C@@H]1CC[C@H]2[C@@H](COC[C@H](O)CN2C(=O)Nc2ccc(Cl)cc2)O1)NCc1ccncn1 | 7.8 | 8.4
C[C@H]1CCCCO[C@H](CN(C)Cc2ccncc2)[C@@H](C)CN([C@@H](C)CO)C(=O)c2cc(NS(=O)(=O)c3ccc(F)cc3)ccc2O1 | -1.8 | -8.7
COc1ccccc1C#Cc1cnc2c(c1)C(=O)N([C@H](C)CO)C[C@@H](C)[C@@H](CN(C)C(C)=O)O2 | 12.0 | 9.3
Cc1noc(C)c1NC(=O)N(C)C[C@@H]1OCCCC[C@H](C)Oc2ccc(NS(=O)(=O)c3ccc(Cl)cc3)cc2C(=O)N([C@@H](C)CO)C[C@H]1C | 21.3 | 10.1
COc1ccccc1-c1ccc2c(c1)O[C@H](CN(C)S(=O)(=O)c1ccccc1)[C@@H](C)CN([C@@H](C)CO)S2(=O)=O | -33.5 | -23.0
O=C(c1cnccn1)N1C[C@H]2[C@@H](c3ccccc31)[C@@H](CO)N2CC1CCCC1 | 7.5 | 8.6
C[C@H](CO)N1C[C@H](C)[C@H](CN(C)Cc2cccc(C(F)(F)F)c2)Oc2ncc(-c3ccc(F)cc3)cc2C1=O | ? | /
CN(C)CCCNC(=O)C[C@@H]1CC[C@@H](NC(=O)Cc2cccnc2)[C@@H](CO)O1 | -2.9 | 1.2
O=C(C[C@@H]1CC[C@H]2[C@@H](COC[C@@H](O)CN2Cc2cc(F)ccc2F)O1)NCc1ccc(Oc2ccccc2)cc1 | ? | /
Cc1noc(C)c1S(=O)(=O)Nc1ccc2c(c1)C(=O)N([C@H](C)CO)C[C@H](C)[C@@H](CN(C)C(=O)c1ccncc1)OCCCC[C@H](C)O2 | 20.2 | 12.3
C[C@@H]1CCCCO[C@@H](CN(C)C(=O)Nc2ccccc2)[C@@H](C)CN([C@H](C)CO)C(=O)c2cc(N(C)C)ccc2O1 | -1.3&19.8 | 2.0&1.5
O=C(C[C@H]1C[C@H]2c3cc(NS(=O)(=O)c4ccc(F)cc4)ccc3O[C@H]2[C@H](CO)O1)NCc1cccnc1 | 1.6 | 4.8
C[C@@H]1CN([C@H](C)CO)C(=O)c2cc(-c3ccccc3)cnc2O[C@H]1CN(C)C(=O)Cc1cccnc1 | 18.5 | 6.5
O=C(Nc1cccc(F)c1)N1C[C@@H]2N[C@H](C1)C2c1ccc(-c2ccccc2F)cc1 (stereo partly specified) | ? | -8.6
CC(C)(C)[S@](=O)N1Cc2cc(C(=O)NCc3ccccc3F)nc(-c3cccc(-c4cncnc4)c3)c2[C@@H]1CCO | -20.4 | -12.1
COc1ccc(NC(=O)Nc2cccc3c2O[C@H](CN(C)C(=O)Nc2ccc(C(F)(F)F)cc2)[C@@H](C)CN([C@H](C)CO)C3=O)cc1 | ? | /
C[C@H]1CCCCO[C@@H](CN(C)C(=O)c2ccncc2)[C@@H](C)CN([C@@H](C)CO)C(=O)c2cc(NS(=O)(=O)c3ccc(Cl)cc3)ccc2O1 | -6.5 | -10.3
Cc1noc(C)c1NC(=O)N(C)C[C@H]1OCCCC[C@H](C)Oc2ccc(NS(=O)(=O)c3cccs3)cc2C(=O)N([C@@H](C)CO)C[C@@H]1C | 26.8 | 6.8
C[C@H]1CCCCO[C@H](CN(C)C(=O)CCCN(C)C)[C@@H](C)CN([C@@H](C)CO)C(=O)c2cc(NC(=O)NC3CCCCC3)ccc2O1 | 4.6 | -3.9
CC(C)C[C@@H]1NC(=O)[C@@H]2C[C@H](C(=O)NCCCCCCN(C)C)[C@H](c3ccc(O)cc3)N2C1=O | 19.2 | 14.5
CN(C)C(=O)c1cccc(-c2ccc(C3[C@H]4CNC[C@@H]3N4Cc3ccccn3)cc2)c1 (stereo partly specified) | 24.7&12.4 | 2.5&-5.4
O=C(C[C@H]1CC[C@@H](NC(=O)C2CC2)[C@@H](CO)O1)Nc1nccs1 | 5.5 | 7.2
COCC(=O)N1[C@@H](C#N)[C@@H](c2ccc(C#Cc3ccccc3F)cc2)[C@@H]1CO | -24.5 | -20.4
Cc1cccc(S(=O)(=O)N[C@H]2CC[C@@H](CCn3cc(-c4ccccn4)nn3)O[C@H]2CO)c1 | -7.3 | 1.8
C[C@@H]1CCCCO[C@H](CN(C)Cc2ccc(C(=O)O)cc2)[C@@H](C)CN([C@H](C)CO)C(=O)c2cc(NC(=O)Nc3ccc(C(F)(F)F)cc3)ccc2O1 | 10.2 | 13.3
N#C[C@H]1N[C@H](CO)[C@@H]1c1ccc(C2=CCCC2)cc1 | 9.5 | 16.8
C[C@@H]1CN([C@@H](C)CO)C(=O)c2cc(NC(=O)Nc3cccc4ccccc34)ccc2O[C@@H](C)CCCCO[C@H]1CN(C)C(=O)CCCN(C)C | 5.5 | 2.0
CN1CCN(C(=O)C[C@H]2C[C@@H]3c4cc(NC(=O)Cc5ccncc5)ccc4O[C@@H]3[C@@H](CO)O2)CC1 | -0.5 | 10.0

Fetched by structure from the entries so far, four records:
SMILES | Vaccinia stage | Vaccinia stage Venus
C[C@H]1CCCCO[C@H](CN(C)C(=O)CCCN(C)C)[C@@H](C)CN([C@@H](C)CO)C(=O)c2cc(NC(=O)NC3CCCCC3)ccc2O1 | 4.6 | -3.9
CN1CCN(C(=O)C[C@H]2C[C@@H]3c4cc(NC(=O)Cc5ccncc5)ccc4O[C@@H]3[C@@H](CO)O2)CC1 | -0.5 | 10.0
O=C(C[C@H]1CC[C@@H](NC(=O)C2CC2)[C@@H](CO)O1)Nc1nccs1 | 5.5 | 7.2
C[C@@H]1CN([C@@H](C)CO)C(=O)c2cc(NC(=O)Nc3cccc4ccccc34)ccc2O[C@@H](C)CCCCO[C@H]1CN(C)C(=O)CCCN(C)C | 5.5 | 2.0

Other entries
SMILES | Vaccinia stage | Vaccinia stage Venus
COc1ccc(S(=O)(=O)Nc2cccc3c2O[C@@H](CN(C)C(=O)Nc2ccc4c(c2)OCO4)[C@H](C)CN([C@@H](C)CO)C3=O)cc1 | 18.6 | 18.0
C[C@@H]1CN([C@H](C)CO)C(=O)c2cc(NC(=O)Cc3ccccc3)ccc2O[C@@H]1CN(C)CC1CCCCC1 | -8.2 | 10.6
C[C@H](CO)N1C[C@H](C)[C@@H](CN(C)Cc2ccc(C(F)(F)F)cc2)OCCCC[C@H](C)Oc2ccc(NC(=O)Nc3ccc4c(c3)OCO4)cc2C1=O | -20.7 | -25.6
COc1cccc(NC(=O)N2[C@@H](CO)[C@@H](c3ccccc3)[C@@H]2CNC(C)C)c1 | 1.4 | 18.0
COc1ccc(CN(C)C[C@@H]2OCc3cnnn3CCCC(=O)N([C@H](C)CO)C[C@H]2C)cc1 | 8.5 | 3.8
O=C(NCC1CC1)[C@H]1[C@H](CO)[C@H]2Cn3c(ccc(-c4cccc(F)c4)c3=O)[C@H]2N1CC1CC1 | -1.6 | -8.8
CC(C)NC(=O)NCC[C@@H]1CC[C@@H](NS(=O)(=O)c2ccc(Oc3ccccc3)cc2)[C@@H](CO)O1 | -3.1 | 3.5
C[C@@H]1CN([C@H](C)CO)C(=O)c2cccc(NC(=O)Nc3ccccc3)c2O[C@@H]1CN(C)Cc1ccc(Oc2ccccc2)cc1 | -23.2 | -15.2
CO[C@H]1CN(C)C(=O)c2ccc(NC(C)=O)cc2OC[C@H](C)N(S(=O)(=O)c2cn(C)cn2)C[C@@H]1C | -1.2 | 1.5
CC(C)C(=O)Nc1ccc2c(c1)C(=O)N(C)[C@H]1CC[C@H](CC(=O)Nc3ccccc3)O[C@H]1CO2 | 12.2 | 7.1
C[C@@H]1CCCCO[C@@H](CN(C)C(=O)Nc2ccc3c(c2)OCO3)[C@H](C)CN([C@H](C)CO)C(=O)c2cc(NS(C)(=O)=O)ccc2O1 | 13.8 | 7.5
C[C@H]1CCCCO[C@H](CN(C)Cc2ccc(C(=O)O)cc2)[C@@H](C)CN([C@@H](C)CO)C(=O)c2cc(NC(=O)CCC(F)(F)F)ccc2O1 | 2.2 | 4.8
CCCC(=O)Nc1ccc2c(c1)C(=O)N(C)C[C@@H](OC)[C@@H](C)CN[C@H](C)CO2 | 2.4 | -0.4
O=C(NC1CCCCC1)N1CC(=O)N2[C@H](C1)[C@@H](c1ccc(-c3cccc(F)c3)cc1)[C@@H]2CO | -32.5 | -50.2
COc1ccccc1S(=O)(=O)N[C@H]1CC[C@H](CC(=O)NCc2cc(F)cc(F)c2)O[C@H]1CO | 10.2 | 0.5
CCC(=O)N[C@@H]1CC[C@@H](CC(=O)NCc2cc(F)cc(F)c2)O[C@H]1CO | 2.8 | 6.0
C[C@H](CO)N1C[C@H](C)[C@H](CN(C)C(=O)CN(C)C)Oc2ncc(-c3ccc(C(=O)N(C)C)cc3)cc2C1=O | 35.1 | 17.5
COC(=O)C[C@@H]1CC[C@@H]2[C@H](COc3ccc(NC(=O)C4CCOCC4)cc3C(=O)N2C)O1 | -4.5 | 2.1
COCC(=O)N1[C@@H](CO)[C@@H](c2ccc(-c3ccccc3OC)cc2)C12CN(C(C)=O)C2 | 0.7 | 6.7
C/C=C/c1ccc([C@H]2[C@@H](CO)N3CCCCN(S(=O)(=O)c4ccc(OC)cc4)C[C@@H]23)cc1 | -26.3 | -21.5
C[C@@H]1CCCCO[C@H](CN(C)C(=O)CCC(F)(F)F)[C@H](C)CN([C@H](C)CO)C(=O)c2cc(N(C)C)ccc2O1 | 3.1 | -1.2
C[C@@H]1CCCCO[C@@H](CN(C)C(=O)Nc2ccccc2)[C@@H](C)CN([C@H](C)CO)C(=O)c2cc(NC(=O)NC3CCCCC3)ccc2O1 | 45.6 | 14.2
C[C@H](CO)N1C[C@H](C)[C@@H](CN(C)C(=O)c2ccc(N3CCN(C)CC3)cc2)OCc2cnnn2CCCC1=O | -0.2&11.3 | 4.4&1.6
CO[C@@H]1CN(C)C(=O)c2ccc(NC(=O)Nc3c(C)noc3C)cc2OC[C@@H](C)N(CCC(F)(F)F)C[C@H]1C | 0.7 | 3.1
C[C@@H]1CN([C@@H](C)CO)C(=O)c2cccc(NC(=O)C3CC3)c2O[C@H]1CN(C)C(=O)Nc1ccc2c(c1)OCO2 | 17.2 | 7.2
C[C@H](CO)N1C[C@H](C)[C@@H](CN(C)Cc2ccc(Cl)c(Cl)c2)Oc2c(NC(=O)Nc3ccc4c(c3)OCO4)cccc2C1=O | -5.6 | -0.3
C[C@@H]1CN([C@H](C)CO)C(=O)c2cc(NS(=O)(=O)c3ccc(Cl)cc3)ccc2O[C@H]1CN(C)Cc1ccncc1 | 15.0 | 3.9
O=C1CSC2=NC3(CO)Oc4ccccc4[C@H]([C@H]3CO)N12 | 18.3 | 19.3
C[C@H](NC(=O)C[C@H]1C=C[C@@H](NC(=O)c2cccnc2)[C@H](CO)O1)c1ccccc1 | 9.8 | 6.2

Among those listed so far, these have a cyano group.
SMILES | Vaccinia stage | Vaccinia stage Venus
COCC(=O)N1[C@@H](C#N)[C@@H](c2ccc(C#Cc3ccccc3F)cc2)[C@@H]1CO | -24.5 | -20.4
N#C[C@H]1N[C@H](CO)[C@@H]1c1ccc(C2=CCCC2)cc1 | 9.5 | 16.8

Screens deposited in PubChem by Broad Institute.
